# TRPV1 potentiator – human TRPV1 potentiation | Q8NER1 | TRPV1-expressing cells, Fluo-8 calcium influx, capsaicin EC20 potentiation; host cell line not named in the record; control for the full effect not named in the record | potentiation, % at 8.33 µM | 320,000 tested, 0.02% active; active means potentiation above 80%; inconclusive means 30% to 80%; inactive means below 30%; also: 0% is about no effect
#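 Fluo-8 calcium influx in TRPV1-expressing cells, kinetic read (ex 480/em 520 nm). Compound added and read 3 min for agonist activity, followed by capsaicin at EC20 final and 2 min further read for enhancement.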
# TRPML1 ag – agonists of human TRPML1 channel; Q9GZU1; TRPML1-expressing cells, Ca2+ dye fluorescence, FDSS; host cell line not named in the record; reference of the full effect not given here; activation, % (concentration not given with the values); 410,000 tested, 0.12% active; AID 624414; in the data active = activation above about 50%; inconclusive = about 30% to 50%; inactive = below about 30%; also: 0% is about no effect; the text of the record puts the active cut at 80%
#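 Cells: TRPML1-DL, 1X Tet inducer, ~16 h at 37 degrees C/5% CO2. Dye: ABD Ca8 no-wash + quencher, 45-90 min RT. Read: 10 s baseline, compound add, 110 s agonist phase; 54-4 EC80 (4uM final), 110 s antagonist phase.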
# Six1-Eya2 inh – inhibitors of human Six1/Eya2 interaction; 360,000 tested, 0.56% active; activity change, % (no concentration beside the values); Q15475+O00167; AlphaScreen GST-Six1/His-Eya2 binding, biochemical; hits give low values; control for the full effect not named in the record; in the data active = activity change below about -65%; inconclusive = about -30% to -65%; inactive = above about -30%; also: % is scaled to controls: 0 for no effect and ±100 for the full control effect; compound concentration not given in the record
# Target sequence (O00167 whole entry, looked up): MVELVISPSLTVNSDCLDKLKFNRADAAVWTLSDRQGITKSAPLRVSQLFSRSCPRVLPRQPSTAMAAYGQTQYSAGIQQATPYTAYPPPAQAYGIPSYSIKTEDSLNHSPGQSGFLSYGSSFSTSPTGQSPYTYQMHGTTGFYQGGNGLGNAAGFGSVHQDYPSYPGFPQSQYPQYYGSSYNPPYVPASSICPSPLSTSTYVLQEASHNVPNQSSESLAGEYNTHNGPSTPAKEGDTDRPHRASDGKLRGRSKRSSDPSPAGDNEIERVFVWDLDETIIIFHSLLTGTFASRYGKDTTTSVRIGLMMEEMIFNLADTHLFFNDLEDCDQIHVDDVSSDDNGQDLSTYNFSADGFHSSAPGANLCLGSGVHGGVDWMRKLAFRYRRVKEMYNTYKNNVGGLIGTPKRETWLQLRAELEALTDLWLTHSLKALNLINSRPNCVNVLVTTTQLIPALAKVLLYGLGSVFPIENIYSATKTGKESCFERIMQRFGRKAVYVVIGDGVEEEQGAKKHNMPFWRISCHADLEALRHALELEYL
# Target sequence (Q15475 whole entry, looked up): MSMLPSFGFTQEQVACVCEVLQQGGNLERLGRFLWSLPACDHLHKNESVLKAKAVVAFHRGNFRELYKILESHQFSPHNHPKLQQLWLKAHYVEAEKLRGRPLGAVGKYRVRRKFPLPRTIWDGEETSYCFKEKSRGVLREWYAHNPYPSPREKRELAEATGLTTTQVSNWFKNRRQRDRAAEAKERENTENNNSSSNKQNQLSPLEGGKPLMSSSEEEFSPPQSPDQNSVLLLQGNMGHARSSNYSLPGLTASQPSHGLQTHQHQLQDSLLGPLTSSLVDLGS
#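 Six1/Eya2 binding was read as AlphaScreen signal after compounds were pinned into GST-Six1 plus His-tagged Eya2 (5X stock 250/500 nM) in pH 8.0 Tris/NaCl/TCEP buffer, beads added, then incubated 1 h, 37 C, dark.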
# TRPML1 blocker – blocks the human TRPML1 channel; 390,000 tested, 0.02% active; activity change, negative = inhibition, % (concentration not given with the values); Q9GZU1; AID 624415; TRPML1-inducible cells, Ca2+ dye fluorescence, FDSS; hits give low values; inhibition of EC80 agonist-evoked calcium signal; in the data active means activity change below about -50%; inconclusive means about -30% to -50%; inactive means above about -30%;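 also: stimulus is agonist 54-4 at its EC80 concentration; % is scaled to controls: 0 for no effect and ±100 for the full control effect; compound concentration not given in the record; the text of the record puts the active cut at -80%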
#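 Tet-induced TRPML1-DL cells loaded with Ca8 no-wash calcium dye were read kinetically on FDSS. Compound addition was followed by EC80 agonist 54-4 (4 uM final); inhibition was read over 110 s.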
# D2 potentiator – positive allosteric modulators of human D2 dopamine receptor | P14416 | DiscoveRx D2 beta-arrestin cells, luminescence, 90 min; 100% = 57 uM dopamine signal | potentiation, % (test concentration not listed) | 360,000 tested, 0.23% active | AID 624464; active = potentiation of 50% or more; inconclusive = 30% to 50%; inactive = 30% or less;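 also: compound concentration not given in the record; tested on top of an EC20 dose of dopamine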
#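 PathHunter D2 cells, attached overnight at 37 deg C, received compound in DMSO plus dopamine at EC20 (50 nM final) for 90 min at 37 deg C. Beta-arrestin recruitment was read as luminescence after 1 h with detection reagent at ambient temperature.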
# CtBP-E1A inh – CtBP/E1A binding inhibition | AlphaScreen GST-E1A/His-CtBP binding, 1536-well; hits give low values; control for the full effect not named in the record | activity change, % (concentration not given with the values) | 340,000 tested, 0.49% active; in the data active means activity change below about -65%; inconclusive means about -30% to -65%; inactive means above about -30%; also: % is scaled to controls: 0 for no effect and ±100 for the full control effect
#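 In 5 uL wells, 23 nL compound meets equimolar GST-E1A and His-CtBP (5X stock 125 nM each) for 2 h, 37 °C. Beads (5X, 50 ug/mL) then 1 h, 37 °C, dark.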
# * hit, by the source's call; ? = inconclusive; · = not tested or not shown; & = joins results of further samples.
nr	compound	TRPV1 potentiator	TRPML1 ag	Six1-Eya2 inh	TRPML1 blocker	D2 potentiator	CtBP-E1A inh
1	CC1CC(C)CN(c2cc(N(C)CCO)c([N+](=O)[O-])c3nonc23)C1 (stereo unspecified)	-6.8	-0.2	0.0	-26.2	-8.4	-1.2
2	O=C(NC1CCCC1)C(c1ccsc1)N(Cc1ccccc1)C(=O)Cc1cccs1 (stereo unspecified)	-10.2	0.7	1.4	6.7	-4.2	1.5
3	CN(C)c1ccc(CN2CCC(C(=O)NC(c3ccc(F)cc3)c3ccc4ccccc4n3)CC2)cc1 (stereo unspecified)	·	-0.5	-65.7*	·	-22.4	?
4	Cn1c(=O)c2c(nc(N3CCCCC3)n2CCNC2=NCCC2)n(C)c1=O	2.7	0.4	6.6	12.6	-10.2	5.6
5	O=C(NCCC(=O)N1CCCC(C(F)(F)F)C1)c1ccccc1Cl (stereo unspecified)	-5.6	1.2	-3.2	20.4	-0.5	3.1
6	COC(=O)Cc1ccc(NC(=S)NNC(=O)C2CC2)cc1	-3.9	1.2	3.0	-17.1	-10.1	1.3
7	CCCS(=O)(=O)N1CCCC(C(=O)NCCCN2CCCC2=O)C1 (stereo unspecified)	6.6	0.8	-0.4	-24.5	5.0	2.7
8	NC(=O)NC(=O)CSc1nc2sc(-c3ccccc3)cc2c(=O)n1-c1ccccc1	1.6	-0.2	1.2	-3.5	1.2	2.4
9	COc1ccc(C(=O)NN/C(C)=C/C(=O)C(F)(F)C(F)(F)C(F)(F)F)cc1	8.8	-0.2	-12.6	-3.0	-19.0	-3.8
10	COc1ccc(S(=O)(=O)Nc2ccccn2)cc1C(=O)Nc1ccccc1	9.1	0.9	3.1	13.8	-0.7	9.5
11	CCN(CC)c1ccc(/C=N/NC(=S)NCc2ccco2)cc1	-1.6	2.2	-28.6	-0.5	-4.9	?
12	COc1ccc(-c2[nH]n(-c3ccc([N+](=O)[O-])cc3)c(=O)c2C=NCc2ccc(F)cc2)cc1	2.3	0.1	-0.9	-7.1	0.2	0.2
13	O=C(CSc1nc(C2CC2)nc2ccccc12)Nc1ccccc1	-8.1	0.6	-4.5	13.7	-2.6	-13.5
14	CCOc1cc(/C=C2\C(=O)ON=C2C)ccc1OCc1ccccc1	-6.2	1.0	3.1	67.0	-8.5	2.5
15	Cc1nnc(NC(=O)CSCc2ccccc2)s1	22.7	0.3	3.6	13.9	0.1	8.1
16	O=C(CCCCCN1C(=O)c2ccccc2C1=O)Oc1ccc2c3c(c(=O)oc2c1)CCC3	-6.5	-0.1	4.1	-11.2	-14.3	-4.9
17	C/C(CCc1ccccc1)=N\NC(=S)NCCc1ccccc1	-4.5	2.9	-3.9	0.7	-5.6	?
18	CCNC(=O)C1(C)CCN(C(=O)c2ccccc2)C1 (stereo unspecified)	·	-0.1	-1.4	·	-7.3	6.9
19	COC(=O)c1ccc(COC(=O)C2CCN(S(=O)(=O)c3ccc(C)c(C)c3)CC2)o1	-5.1	5.0	-1.8	0.5	3.0	0.0
20	Cc1ccc(Cn2c(CCC(=O)O)nc3ncccc3c2=O)cc1	-15.4	-0.2	0.5	2.2	-2.8	-13.1

# Laid out differently: entries from further up
(2) O=C(NC1CCCC1)C(c1ccsc1)N(Cc1ccccc1)C(=O)Cc1cccs1 (stereo unspecified)
(13) O=C(CSc1nc(C2CC2)nc2ccccc12)Nc1ccccc1
(4) Cn1c(=O)c2c(nc(N3CCCCC3)n2CCNC2=NCCC2)n(C)c1=O
assay / compound	2	13	4
TRPV1 potentiator	-10.2	-8.1	2.7
TRPML1 ag	0.7	0.6	0.4
Six1-Eya2 inh	1.4	-4.5	6.6
TRPML1 blocker	6.7	13.7	12.6
D2 potentiator	-4.2	-2.6	-10.2
CtBP-E1A inh	1.5	-13.5	5.6

# The main list resumes, starting 3 compounds before the break.
nr	compound	TRPV1 potentiator	TRPML1 ag	Six1-Eya2 inh	TRPML1 blocker	D2 potentiator	CtBP-E1A inh
18	CCNC(=O)C1(C)CCN(C(=O)c2ccccc2)C1 (stereo unspecified)	·	-0.1	-1.4	·	-7.3	6.9
19	COC(=O)c1ccc(COC(=O)C2CCN(S(=O)(=O)c3ccc(C)c(C)c3)CC2)o1	-5.1	5.0	-1.8	0.5	3.0	0.0
20	Cc1ccc(Cn2c(CCC(=O)O)nc3ncccc3c2=O)cc1	-15.4	-0.2	0.5	2.2	-2.8	-13.1
21	CNc1nc(Sc2cccc(C(F)(F)F)c2)cc(C(F)(F)F)n1	8.6	-0.4	14.7	-6.1	-5.0	20.3
22	O=C(Oc1c(Br)cc(Br)c2cccnc12)N1CCCCC1	-15.5	0.3	10.3	-17.0	0.3	4.1
23	CN(C)c1cccc(CNC(=O)c2ccc3sc([C@@H]4O[C@H](CO)[C@H](O)[C@H](O)[C@H]4O)nc3c2)c1	·	0.1	2.4	-5.7	-26.7	0.2
24	CCOC(=O)c1ccc(NC(=S)N2CCN(c3ccccn3)CC2)cc1	1.1	-0.8	-12.9	11.8	-17.3	0.1
25	CCc1ccc(NC(=O)Cn2nnc(C(=O)NCc3ccco3)c2N)cc1	-2.7	-0.4&-0.8	0.5	16.0&24.8	-14.0	6.4
26	Cc1ccccc1NS(=O)(=O)c1ccc(C(=O)N2CCN(S(=O)(=O)c3ccccc3)CC2)cc1	0.6	-0.9	0.1	14.5	?	-5.7
27	CCCCOC(=O)CCc1c(C)[nH]c(=S)[nH]c1=O	1.9	0.7	12.6	-9.1	-8.6	-3.2
28	O=C(OCCN(C1=NS(=O)(=O)c2ccccc21)c1ccc(Cl)cc1)c1ccco1	28.1	5.3	-5.7	10.5	1.8	-1.2
29	CCC(C)(C)C1CCC2(CC1)NC(=O)N(CC(=O)NCCc1c[nH]c3ccccc13)C2=O (stereo unspecified)	10.0	-0.7	0.0	-2.2	-17.1	17.5
30	COc1ccc(C(=O)NNC(=O)CN2CCC(n3nnc4cc(F)ccc43)CC2)cc1	14.5	0.4	-0.4	37.3	-26.4	2.6
31	Cc1cccc(-c2nc(CN3CCCC(C(=O)NC4CCCC4)C3)c(C)o2)c1 (stereo unspecified)	4.8	1.0	-3.1	23.8	-24.9	-6.6
32	O=C(Nc1nc2c(Cl)ccc(Cl)c2s1)c1ccco1	-17.1	0.0	7.5	16.1	-1.7	-2.4
33	COc1cc(NC(=S)N2CCN(C(c3ccccc3)c3ccccc3)CC2)cc(OC)c1	-5.3	2.6	-11.9	-16.2	-13.9	-7.1
34	CCC(C)NC(=O)C1CCCN(S(=O)(=O)c2ccc3c(c2)CC(C)N3C(=O)C2CC2)C1 (stereo unspecified)	-1.4	0.0	8.0	-7.6	-8.2	-21.2
35	CCc1ccc2c(CN3CCC(C(=O)OC)CC3)cc(=O)oc2c1	-11.4	0.1	3.6	16.7	21.3	5.9
36	CCCN(Cc1cc(=O)[nH]c2ccccc12)C(=O)CC	3.4	0.6	-3.9	25.6	0.9	·
37	COc1ccc(OC)c(S(=O)(=O)Nc2cc(C(=O)O)ccc2N2CC3CC(C2)c2cccc(=O)n2C3)c1 (stereo unspecified)	-4.3	-0.1	-0.7	-20.7	-11.1	·
38	CCn1nc(C)c(CNC(=O)c2cc(COc3ccc(F)cc3Cl)on2)c1C	-14.4	0.1	?	-5.3	-10.3	-4.3
39	COc1ccc(/C(C)=N\NS(=O)(=O)c2ccccc2)cc1OC	13.7	0.0	1.0	-0.2	-9.0	5.8
40	CCC(=O)N/N=C(\C)CC(=O)Nc1ccc2c(c1)OCCO2	-18.4	0.2	14.2	7.5	-2.8	-4.9

# Some of the entries so far, screen by screen.
30	COc1ccc(C(=O)NNC(=O)CN2CCC(n3nnc4cc(F)ccc43)CC2)cc1
31	Cc1cccc(-c2nc(CN3CCCC(C(=O)NC4CCCC4)C3)c(C)o2)c1 (stereo unspecified)
32	O=C(Nc1nc2c(Cl)ccc(Cl)c2s1)c1ccco1
Assay by compound	30	31	32
TRPV1 potentiator	14.5	4.8	-17.1
TRPML1 ag	0.4	1.0	0.0
Six1-Eya2 inh	-0.4	-3.1	7.5
TRPML1 blocker	37.3	23.8	16.1
D2 potentiator	-26.4	-24.9	-1.7
CtBP-E1A inh	2.6	-6.6	-2.4

# Going on with the list:
nr	compound	TRPV1 potentiator	TRPML1 ag	Six1-Eya2 inh	TRPML1 blocker	D2 potentiator	CtBP-E1A inh
41	Cc1nc(N2CCC(C)CC2)c2c(C)c(C(=O)O)sc2n1	-1.1	1.6	-1.3	-8.1	-7.6	-13.5
42	NC(=O)C1CCN(C(=O)CC2C(=O)NCCN2Cc2cccc(Oc3ccccc3)c2)CC1 (stereo unspecified)	-1.6	0.1	0.5	11.1	5.7	-10.1
43	C=CCN=c1sc(C(=O)OC)cc(=O)n1CC=C	4.5	3.2	2.8	18.3	-5.0	-1.4
44	CCC1SC2=NC(C)=C(C(=O)OC)C(c3ccc(C(=O)OC)cc3)N2C1=O (stereo unspecified)	-3.8	-0.6	-2.7	-1.0	-24.5	-5.0
45	O=C(COC(=O)COc1cccc(F)c1)NCCC1=CCCCC1	-14.2	-0.2	7.0	-5.2	-7.2	2.9
46	FC(F)(F)c1cc(-c2ccccc2)nc(NCc2cccs2)n1	-5.1	2.6	43.8	4.3	-12.3	6.3
47	CC(=O)c1cccc(Nc2cc(C)nc3ccccc23)c1	13.4	·	3.0	·	-20.7	-2.1
48	CCN(CC)CCCN(C(C)=O)c1nc(-c2cc(OC)ccc2OC)cs1	18.7	1.8	-2.4	19.7	-13.1	-8.2
49	Cc1c(N=C/C=C2/N(C)c3ccccc3C2(C)C)c(=O)n(-c2ccccc2)n1C	2.9	0.1&1.2	-3.9&24.3	-0.8&5.5	-20.8&-38.5	-2.4&0.0
50	Fc1ccc(CN2CCN(c3ncnc4scc(-c5ccc(F)cc5)c34)CC2)cc1	?	-0.4	-12.5	-12.5	-18.3	-11.7
51	CCn1c(SCC(=O)NNC(=S)Nc2ccccc2)nnc1-c1ccc(Cl)cc1	-2.5	1.5	-7.8	-18.7	-46.0	-6.8
52	Cc1ccc(CN2CC(C(=O)NNC(=O)Cn3ccc(C(F)(F)F)n3)CC2=O)cc1 (stereo unspecified)	6.4	1.2	4.5	-21.9	-7.1	2.8
53	CCc1ccccc1NC(=O)CSc1nc2ccccc2nc1N1CCOCC1	6.6	1.1	1.6	-0.8	-3.6	-16.5
54	CCOc1ccccc1OCCCNCc1ccccc1	?	0.0	-0.4	5.4	-12.9	4.9
55	Nc1ccccc1C(=O)N1O[C@@H]2C=C[C@H]1C2	·	-0.9	2.4	-15.2	·	2.9
56	O=C(CC1C(=O)NCCN1C(=O)Nc1ccc(F)cc1)Nc1cc(Cl)ccc1Cl (stereo unspecified)	-12.6	1.9	2.1	16.8	-6.9	·
57	O=C(Cc1ccccc1)NNC(=O)Cc1ccccc1	1.7	1.6	6.0	-7.1	-3.6	·
58	COc1ccc(-c2ccc(=O)n(CC(=O)Nc3cccc(O)c3)n2)cc1OC	1.3	-0.8	-1.8	9.7	-3.0	-2.5
59	Cn1c(SCC(=O)NC2CCCC2)nnc1-c1ccco1	10.4	0.7	9.5	17.7	-4.3	-1.3
60	Cc1ccc(Nc2ccc3nonc3c2[N+](=O)[O-])cc1	2.0	3.5	-8.8	-8.7	-3.4	0.5
61	C[C@@H](NC(=O)c1[nH]cnc1C(=O)Nc1ccccc1)c1ccccc1	-3.8	1.2	-4.0	8.6	-13.8	-7.1

# Compound activity from PubChem.
